# UUG fidelity: modulators of yeast start codon fidelity, primary screen, whole organism, S. cerevisiae, single point, plate reader | S. cerevisiae UUG-firefly luciferase reporter, luminescence/redox ratio | activity score, % at 18.7 µM | hit rate 0.13% among 350,000;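 active means replicate mean at a twofold rise or more, about +100% in these data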;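 further: firefly luciferase made from a UUG start codon reports start codon fidelity; reporter light over untreated wells divided by growth signal over untreated wells; some hits fall short of that in this replicate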
# Env fusion inh: inhibitors of HIV-1 Env-driven cell-cell fusion, primary screen, HeLa-JRFL effector, CEM21 target cells, luciferase; inhibition, % at 12.3 µM; hit rate 1.1% among 360,000; AID 651610, 2012;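 active means mean replicate inhibition score of at least 50 and every replicate individually at or above 50; inconclusive means only one of the two criteria met; inactive means mean below 50 and not all replicates reaching 50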;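 further: 0% = plate neutral controls and 100% = maraviroc near 300 nM; one replicate is shown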
# * hit, by the source's call; ? = inconclusive; [ ] = dose if it differs, or a comment. Some of the compounds tested; rates above refer to the full screens.
Env fusion inh	UUG fidelity	smiles
-7.8[16.7 µM]	8.3	CCC(=O)N(C)C[C@H]1Oc2ncc(-c3ccccc3OC)cc2C(=O)N([C@H](C)CO)C[C@H]1C
0.4[16.7 µM]	7.6	COCC(=O)N(C)C[C@@H]1Oc2cc(-c3ccc(OC)cc3)ccc2S(=O)(=O)N([C@@H](C)CO)C[C@H]1C
1.4[16.7 µM]	-2.6	COc1ccc(NC(=O)N(C)C[C@@H]2OCCCC[C@H](C)Oc3ccc(NC(=O)Nc4cccc5ccccc45)cc3C(=O)N([C@H](C)CO)C[C@@H]2C)cc1
-5.2[16.7 µM]	-2.6	COc1cccc(-c2ccc3c(c2)O[C@H](CN(C)Cc2cccnc2)[C@H](C)CN([C@H](C)CO)S3(=O)=O)c1
12.3[16.7 µM]	-8.4	COCC(=O)Nc1ccc2c(c1)C(=O)N(C)[C@@H]1CC[C@H](CC(=O)NCc3ccccc3)O[C@H]1CO2
-15.0[16.7 µM]	-5.1	C[C@H]1CN([C@@H](C)CO)S(=O)(=O)c2ccc(-c3cncnc3)cc2O[C@@H]1CN(C)C(=O)c1cccc(F)c1
-4.4[16.7 µM]	14.1	C[C@@H]1CN([C@H](C)CO)S(=O)(=O)c2ccc(C3=CCCCC3)cc2O[C@@H]1CN(C)C(=O)CN(C)C
-6.0[16.7 µM]	-8.4	C[C@@H]1CCCCO[C@@H](CN(C)S(C)(=O)=O)[C@H](C)CN([C@H](C)CO)C(=O)c2cc(NC(=O)Nc3ccc(C(F)(F)F)cc3)ccc2O1
-9.3[16.7 µM]	-12.5	O=C(N[C@@H]1CC[C@H](CCn2cc(Cc3ccccc3)nn2)O[C@H]1CO)c1ccccn1
-1.4[16.7 µM]	-3.1	Cc1ccccc1-c1cnc2c(c1)C(=O)N([C@@H](C)CO)C[C@H](C)[C@@H](CN(C)C(=O)c1ccncc1)O2
28.8[16.7 µM]	0.3	COc1ccc(CN(C)C[C@H]2OCCCC[C@H](C)Oc3ccc(NC(=O)CCCN(C)C)cc3C(=O)N([C@@H](C)CO)C[C@@H]2C)cc1
-15.7[16.7 µM]	-6.2	C[C@@H]1CN([C@@H](C)CO)C(=O)c2cc(-c3cccc(F)c3)cnc2O[C@H]1CN(C)Cc1cccnc1
-5.0[16.7 µM]	63.9	CCCNC(=O)C[C@@H]1C[C@@H]2c3cc(NC(=O)C4CCOCC4)ccc3O[C@@H]2[C@@H](CO)O1
2.1[16.7 µM]	-8.9	C[C@@H]1CN([C@@H](C)CO)C(=O)c2cc(NC(=O)NC3CCCCC3)ccc2O[C@@H]1CN(C)S(=O)(=O)c1cccs1
-29.1[16.7 µM]	-4.9	C[C@H](CO)N1C[C@H](C)[C@H](CN(C)S(=O)(=O)c2ccccc2)OCCCC[C@H](C)Oc2ccc(NC(=O)c3ccncc3)cc2C1=O

# For convenience, some entries already given:
Env fusion inh	UUG fidelity	smiles
-5.2[16.7 µM]	-2.6	COc1cccc(-c2ccc3c(c2)O[C@H](CN(C)Cc2cccnc2)[C@H](C)CN([C@H](C)CO)S3(=O)=O)c1
12.3[16.7 µM]	-8.4	COCC(=O)Nc1ccc2c(c1)C(=O)N(C)[C@@H]1CC[C@H](CC(=O)NCc3ccccc3)O[C@H]1CO2
-15.0[16.7 µM]	-5.1	C[C@H]1CN([C@@H](C)CO)S(=O)(=O)c2ccc(-c3cncnc3)cc2O[C@@H]1CN(C)C(=O)c1cccc(F)c1
-4.4[16.7 µM]	14.1	C[C@@H]1CN([C@H](C)CO)S(=O)(=O)c2ccc(C3=CCCCC3)cc2O[C@@H]1CN(C)C(=O)CN(C)C
-6.0[16.7 µM]	-8.4	C[C@@H]1CCCCO[C@@H](CN(C)S(C)(=O)=O)[C@H](C)CN([C@H](C)CO)C(=O)c2cc(NC(=O)Nc3ccc(C(F)(F)F)cc3)ccc2O1

# Additional compounds follow:
Env fusion inh	UUG fidelity	smiles
-1.2[16.7 µM]	-16.6	CO[C@H]1CN(C)C(=O)c2ccc(NC(C)=O)cc2OC[C@H](C)N(C(=O)CC2CC2)C[C@H]1C
25.0[16.7 µM]	2.6	C[C@@H]1CN([C@H](C)CO)C(=O)c2cc(NS(=O)(=O)c3ccc(Cl)cc3)ccc2O[C@@H]1CN(C)Cc1ccc(-c2ccccc2)cc1
13.4[16.7 µM]	106.1*	Cc1ccc(S(=O)(=O)N(C)C[C@H]2Oc3cc(-c4cccc(F)c4)ccc3S(=O)(=O)N([C@@H](C)CO)C[C@@H]2C)cc1
-1.0[16.7 µM]	31.8	C[C@H](CO)N1C[C@H](C)[C@H](CN(C)C(=O)Nc2cccc(F)c2)Oc2ncc(C#CCN(C)C)cc2C1=O
-14.3[16.7 µM]	-10.0	C[C@H]1CN([C@@H](C)CO)C(=O)c2cccc(NS(=O)(=O)c3ccc(Cl)cc3)c2O[C@H]1CN(C)S(=O)(=O)c1cccs1
12.0[16.7 µM]	-0.4	C[C@@H]1CCCCO[C@@H](CN(C)S(=O)(=O)c2cn(C)cn2)[C@H](C)CN([C@H](C)CO)C(=O)c2cc(NS(C)(=O)=O)ccc2O1
-14.1[16.7 µM]	1.9	C[C@@H]1CN([C@@H](C)CO)C(=O)c2cc(NS(=O)(=O)c3ccccc3)ccc2O[C@H]1CN(C)S(=O)(=O)c1cn(C)cn1
-1.0[16.7 µM]	5.0	CCC(=O)N1C[C@H](C)[C@@H](OC)CN(C)C(=O)c2cc(NC(=O)Nc3ccccc3)ccc2OC[C@H]1C
18.3[16.7 µM]	13.8	CNC[C@@H]1Oc2ncc(C#Cc3ccc(F)cc3)cc2C(=O)N([C@H](C)CO)C[C@@H]1C
5.9[16.7 µM]	14.0	C[C@@H]1CN([C@@H](C)CO)C(=O)c2cc(C#CCN(C)C)cnc2O[C@H]1CN(C)S(C)(=O)=O
?	3.2	C[C@H](CO)N1C[C@H](C)[C@H](CN(C)CC2CC2)Oc2ccc(NC(=O)Nc3ccc(F)cc3)cc2CC1=O
9.3[16.7 µM]	-5.0	COc1cc(CO)cc(I)c1O[C@H]1C=C(C(=O)NCCO)C[C@@H](N(C(=O)c2cc3ccccc3oc2=O)C2CCCCCC2)[C@@H]1O
0.0[16.7 µM]	23.3	CN1C(=O)c2cc(NS(C)(=O)=O)ccc2OC[C@@H]2O[C@@H](CC(=O)NCc3ccccc3)CC[C@H]21
23.4[16.7 µM]	8.9	C[C@@H]1CN([C@H](C)CO)C(=O)Cc2cc(NC(=O)C3CCCCC3)ccc2O[C@@H]1CN(C)C(=O)Nc1ccccc1
-19.1[16.7 µM]	3.4	C[C@@H]1CN([C@@H](C)CO)C(=O)c2cc(NS(=O)(=O)c3cn(C)cn3)ccc2O[C@H]1CN(C)C(=O)Nc1ccccc1
3.8[16.7 µM]	5.3	COc1ccc(NC(=O)Nc2ccc3c(c2)C(=O)N([C@@H](C)CO)C[C@@H](C)[C@H](CN(C)C(=O)CCC(F)(F)F)OCCCC[C@@H](C)O3)cc1
-22.6[16.7 µM]	-5.8	C[C@H]1CN([C@@H](C)CO)S(=O)(=O)c2ccc(-c3cccc(C#N)c3)cc2O[C@H]1CN(C)C(=O)Nc1ccccc1F
9.4[16.7 µM]	-7.4	O=C(C[C@@H]1C=C[C@H](NC(=O)c2ccc(F)cc2)[C@@H](CO)O1)NCCc1ccccc1
-28.0[16.7 µM]	-1.1	C[C@H](O)C#Cc1cnc2c(c1)C(=O)N([C@@H](C)CO)C[C@H](C)[C@@H](CN(C)Cc1cncnc1)O2
-4.6[16.7 µM]	9.3	C[C@@H]1CN([C@@H](C)CO)S(=O)(=O)c2ccc(C#CC3CC3)cc2O[C@H]1CN(C)C(=O)C1CC1
1.9[16.7 µM]	8.6	O=C(NCC[C@H]1CC[C@H](NS(=O)(=O)c2ccc(Cl)cc2)[C@@H](CO)O1)c1ccccc1F
9.1[16.7 µM]	-2.2	COc1ccc(NC(=O)N(C)C[C@H]2OCCCC[C@H](C)Oc3ccc(NC(=O)Nc4ccc(C(F)(F)F)cc4)cc3C(=O)N([C@@H](C)CO)C[C@H]2C)cc1
-14.1[16.7 µM]	3.0	COc1ccc(S(=O)(=O)Nc2ccc3c(c2)C(=O)N([C@@H](C)CO)C[C@H](C)[C@H](CN(C)Cc2ccc(C(=O)O)cc2)OCCCC[C@H](C)O3)cc1
3.7[16.7 µM]	3.1	C[C@H](CO)N1C[C@H](C)[C@H](CN(C)Cc2ccc(C(F)(F)F)cc2)OCCCC[C@H](C)Oc2ccc(NS(=O)(=O)c3cn(C)cn3)cc2C1=O
1.4[16.7 µM]	-3.0	O=C(C[C@H]1C=C[C@@H](NC(=O)CN2CCOCC2)[C@H](CO)O1)NCCc1ccccc1
10.8[16.7 µM]	-18.4	C[C@@H]1CN([C@@H](C)CO)C(=O)c2cc(N(C)C)ccc2O[C@@H]1CN(C)Cc1ccccc1
22.5[16.7 µM]	12.3	Cc1noc(C)c1NC(=O)Nc1cccc2c1O[C@H](CN(C)Cc1ccc(Cl)c(Cl)c1)[C@H](C)CN([C@@H](C)CO)C2=O
9.3[16.7 µM]	10.5	Cc1noc(C)c1S(=O)(=O)Nc1ccc2c(c1)C(=O)N([C@H](C)CO)C[C@H](C)[C@H](CN(C)C(=O)NC1CCCCC1)OCCCC[C@@H](C)O2
0.7[16.7 µM]	-9.6	N#C[C@H]1[C@@H](c2ccc(C3=CCCCC3)cc2)[C@H](CO)N1C(=O)NC1CCCCC1
9.3[16.7 µM]	10.4	COCCNC(=O)C[C@@H]1CC[C@@H]2[C@H](COc3ccc(NC(=O)COC)cc3C(=O)N2C)O1
12.9[16.7 µM]	19.4	C[C@H]1CN([C@@H](C)CO)C(=O)c2cc(C3=CCCCC3)cnc2O[C@H]1CN(C)C(=O)c1cccnc1
-1.4[16.7 µM]	10.4	C[C@@H]1CCCCO[C@H](CN(C)Cc2ccc3c(c2)OCO3)[C@@H](C)CN([C@H](C)CO)C(=O)c2cc(NC(=O)Cc3ccccc3)ccc2O1
-11.8[16.7 µM]	-0.4	Cc1noc(C)c1NC(=O)N(C)C[C@@H]1Oc2ccc(NC(=O)Nc3ccccc3)cc2CC(=O)N([C@@H](C)CO)C[C@H]1C
6.4[16.7 µM]	17.4	C[C@H]1CN([C@@H](C)CO)C(=O)c2cc(NC(=O)CCCN(C)C)ccc2O[C@@H]1CN(C)CC1CC1
-1.7[16.7 µM]	13.5	C[C@@H]1CCCCO[C@@H](CN(C)Cc2ccc(C(=O)O)cc2)[C@H](C)CN([C@@H](C)CO)C(=O)c2cc(NC(=O)Nc3ccc(F)cc3)ccc2O1
36.8[16.7 µM]	-4.1	C[C@@H]1CN([C@H](C)CO)C(=O)c2cc(NC(=O)CCCN(C)C)ccc2O[C@@H](C)CCCCO[C@@H]1CN(C)S(C)(=O)=O
0.1	0.4	C[C@H](CO)N1C[C@H](C)[C@H](CN(C)C(=O)Nc2ccc(F)cc2)OCc2cnnn2CCCC1=O
-1.4[16.7 µM]	-0.8	COc1ccc(NC(=O)Nc2ccc3c(c2)CC(=O)N([C@@H](C)CO)C[C@@H](C)[C@H](CN(C)C(=O)NC2CCCCC2)O3)cc1
12.6[16.7 µM]	6.2	CCC(=O)N(C)C[C@@H]1Oc2cc(C#CC3CCCC3)ccc2S(=O)(=O)N([C@H](C)CO)C[C@H]1C
-50.8[16.7 µM]	-13.8	COc1ccc(S(=O)(=O)Nc2ccc3c(c2)C(=O)N([C@H](C)CO)C[C@@H](C)[C@H](CN(C)S(=O)(=O)c2ccc(OC)cc2)OCCCC[C@@H](C)O3)cc1
-15.5[16.7 µM]	0.8	CCC(=O)N(C)C[C@H]1Oc2cc(C#CCOC)ccc2S(=O)(=O)N([C@H](C)CO)C[C@H]1C
-16.4[16.7 µM]	-1.6	CC(=O)N(C)C[C@@H]1Oc2ncc(-c3ccc(C(=O)N(C)C)cc3)cc2C(=O)N([C@@H](C)CO)C[C@@H]1C
-11.8[16.7 µM]	2.4	COc1ccc(NC(=O)Nc2cccc3c2O[C@H](CN(C)C(=O)NC(C)C)[C@@H](C)CN([C@@H](C)CO)C3=O)cc1
2.7[16.7 µM]	7.9	CO[C@H]1CN(C)C(=O)c2cc(NC(=O)Nc3cc(F)ccc3F)ccc2OC[C@@H](C)N(C(=O)c2ccccn2)C[C@H]1C
-4.4[16.7 µM]	-12.6	CCNC(=O)C[C@H]1CC[C@H]2[C@@H](COc3ccc(NC(=O)C4CCCCC4)cc3C(=O)N2C)O1
-8.7[16.7 µM]	-1.5	C[C@@H]1CN([C@H](C)CO)C(=O)c2cc(C3=CCCC3)cnc2O[C@@H]1CN(C)Cc1ccccc1
-5.5[16.7 µM]	-19.2	C[C@H](CO)N1C[C@H](C)[C@H](CN(C)C(=O)Nc2ccc(F)cc2)OCCCC[C@H](C)Oc2ccc(NC(=O)Nc3ccc(C(F)(F)F)cc3)cc2C1=O
64.9*[16.7 µM]	1.5	C[C@H]1CN([C@@H](C)CO)C(=O)c2cc(NC(=O)Nc3ccc4c(c3)OCO4)ccc2O[C@H]1CN(C)S(=O)(=O)c1ccc(Cl)cc1
12.5[16.7 µM]	4.7	Cc1noc(C)c1NC(=O)Nc1ccc2c(c1)C(=O)N([C@H](C)CO)C[C@@H](C)[C@@H](CN(C)C(=O)C1CCCCC1)OCCCC[C@H](C)O2
15.5[16.7 µM]	-6.0	C/C=C/c1ccc2c(c1)O[C@@H](CN(C)Cc1cccnc1)[C@H](C)CN([C@H](C)CO)S2(=O)=O
3.2[16.7 µM]	9.8	CCCNC(=O)N(C)C[C@@H]1Oc2ncc(-c3ccccc3)cc2C(=O)N([C@@H](C)CO)C[C@@H]1C
-103.0[16.7 µM]	-6.1	COc1cccc(NC(=O)N(C)C[C@H]2Oc3cc(-c4ccccc4OC)ccc3S(=O)(=O)N([C@@H](C)CO)C[C@H]2C)c1
2.7[16.7 µM]	-5.8	C[C@@H]1CN([C@@H](C)CO)S(=O)(=O)c2ccc(/C=C/c3ccccc3)cc2O[C@@H]1CN(C)Cc1cncnc1

# Source: PubChem (Broad Institute)
